Source: PubChem BioAssay (several laboratories)
Autofluor counter – compound fluorescence in toxin protease inhibitor counterscreen. fluorescence intensity (concentration not given with the values). 3.1% of 360,000 active. compound autofluorescence counterscreen, microsphere flow cytometry; hits give high values. AID 624483;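 active = at least 3 SD above the mean of all compounds, about 16000 in these data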;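 also: 100 nL of 1 mM stock went into each well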
BJeLR viability – kills HRASV12-expressing BJeLR cells; inhibition, % (test concentration not listed); 0.17% of 300,000 active; BJeLR (HRASV12) viability, CellTiter-Glo ATP luminescence, 48 h; reference of the scale not given here;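 active = replicate mean above 50%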;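 also: 50 nL library stock added to about 25 µL; numbers are from one replicate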
The depositor's hits bear a star; x = not tested or not shown. These rows are one share of the data, so the mix of outcomes need not match the whole.

SMILES	Autofluor counter	BJeLR viability
O=C(CC(NC(=O)OCc1ccccc1)c1nn[nH]n1)OCc1ccccc1 (stereo unspecified)	3843	x
COc1cc(NC(=O)C2=C(C)OCCS2)c(Cl)cc1C(=O)NCCCN1CCCC(C)C1 (stereo unspecified)	3979	x
CCc1nc2ccc(C(=O)NCc3ccccc3OC)cn2c1N(C)Cc1ccc(N(C)C)cc1	4105	x
CCc1nc2c(OCCn3cccc3)cccn2c1N(C)C(=O)c1ccco1	3954	x
C[C@H](O)CNC(=O)c1[nH]cnc1C(=O)Nc1cccc(Cl)c1	3340	x
CCCS(=O)(=O)NC(=O)C1(C)CCCN(C(=O)c2ccccc2F)C1 (stereo unspecified)	3669	x
COc1ccc(NC(=O)C[C@H]2C(=O)N(CCc3ccccc3)C[C@@H]2Cc2ccccc2)cc1	2846	x
CCCC(=O)N1CCCC1(C)C(=O)Nc1cc(C)ccc1C (stereo unspecified)	2915	x
Cc1ccc(OCc2nnn(CC(=O)NS(=O)(=O)c3c(C)noc3C)c2-c2ccccc2)cc1	4002	x
NC(=O)C1CCN(C(=O)c2ccc(Cl)c(NC(=O)c3cccs3)c2)CC1	3927	x
Cc1cc(C)c(SSc2nnnn2-c2ccccc2)c(C)c1	2867	x
COc1ccc(C(=O)OCc2ccccc2C#N)cc1S(=O)(=O)N1CCOCC1	4155	x
Cc1cc(F)ccc1C(O)c1ncc(-c2cccc(F)c2)[nH]1 (stereo unspecified)	3497	x
COC(=O)c1c(C(=O)OC)c2c(-c3ccccc3)cc3cccc1n32	4190	x
COc1ccc(CNc2nccn3ccnc23)cc1	3875	x
O[C@H]1CN(CC2CCCCC2)[C@@H](c2ccccc2)C[C@@H]1n1cc(C2CC2)nn1	3261	x
COc1cccc(OC)c1-c1cnc(NC(C)=O)cn1	3761	x
COc1ccc(-c2csc(C(C)(O)c3cccc(F)c3)n2)cc1 (stereo unspecified)	2977	x
CC1Sc2ccc(C(=O)N(CCc3ccccc3)Cc3ccccc3)cc2NC1=O (stereo unspecified)	3991	x
COc1ccc(-c2ccc(CN3C(C(C)C)C(=O)N(Cc4cn(CC5CCCCC5)nn4)CCS3(=O)=O)cc2)cn1 (stereo unspecified)	3685	x
C[C@@H]1CN([C@@H](C)CO)C(=O)c2c(c3ccccc3n2C)-c2ccccc2CO[C@H]1CN(C)C(=O)[C@H](C)c1ccccc1	3510	x
CCCS(=O)(=O)NC(=O)C1(C)CCCN(C(=O)c2cccc(OC(F)(F)F)c2)C1 (stereo unspecified)	4024	x
C[C@@H]1CN([C@H](C)CO)C(=O)CCCn2nncc2CO[C@@H]1CN(C)S(=O)(=O)c1ccc(F)cc1	4067	x
COc1ccc(-c2cc3nc(-c4ccccc4)cc(N4CCN(C(=O)c5ccsc5)CC4)n3n2)cc1	4074	x
COc1cc(Cc2cc(OC)c(O)c(OC)c2)cc(OC)c1O	3729	x

(cont.)
SMILES	Autofluor counter	BJeLR viability
COc1ccc(-c2ccc(CN3C(C)C(=O)N(Cc4cn(Cc5ccco5)nn4)CCS3(=O)=O)cc2)cc1 (stereo unspecified)	3809	x
O=C(Nc1ccccc1)c1cc(C2CCCCN2S(=O)(=O)c2ccc(F)cc2F)on1 (stereo unspecified)	2964	x
CC(C)OC(=O)N(C)C[C@@H]1OCc2cn(nn2)CCCC(=O)N([C@@H](C)CO)C[C@H]1C	3843	x
CCOC(=O)N(C)c1c(CC)nc2c(OCc3ccc(Cl)cc3Cl)cccn12	3653	x
CCOc1ccc(CCN2C(=S)N([C@@H](CC(C)C)CN3CCC[C@@H]3CN3C(=S)NC[C@@H]3Cc3ccccc3)C[C@@H]2Cc2ccc(O)cc2)cc1	7085	x
Cc1ccc([C@H]2C[C@@H](n3cc(-c4ccc(F)cc4)nn3)[C@H](O)CN2Cc2cccs2)cc1	3702	x
CCOC(=O)C1=CCN(S(=O)(=O)c2ccccc2C)C1c1ccc(Cl)cc1 (stereo unspecified)	6242	x
O=C(CSc1ccccc1F)NC(=O)NC1CCCC1	4128	x
C[C@H](CO)N1C[C@H](C)[C@@H](CN(C)Cc2ccc(C(=O)O)cc2)Oc2ncc(-c3ccc(C(=O)N(C)C)cc3)cc2C1=O	2837	x
COc1ccc(F)cc1-c1cc(NC=O)c2ncc(-c3cc(OC)c(OC)c(OC)c3)n2c1	3876	x
CSc1ncnc2c1ncn2CCCNCC(c1ccccc1)c1ccccc1	3784	x
Cn1ccc2c(-c3cccc4ccccc34)cc3c(c21)C1CCC3O1 (stereo unspecified)	4389	x
C[C@@H]1CN([C@@H](C)CO)C(=O)CCCn2nncc2CO[C@@H]1CN(C)C(=O)Nc1ccccc1F	3714	x
COc1ccc(NC(=O)c2cc(-c3cc(Cl)ccc3C)n[nH]2)cc1OC	3597	x
COc1ccc(NC(=O)C[C@H]2C(=O)N(c3ccc(Br)cc3)C[C@@H]2C)cc1	3542	x
COc1ccc(OCCN2CCC(C(=O)NC(c3ccsc3)c3ccccc3C)CC2)cc1 (stereo unspecified)	3527	x
CC(C)[C@@H]1Cc2[nH][nH]c(=O)c2[C@H](C)O1	6155	x
CC(C)n1nnnc1C1c2ccccc2C(=O)N1Cc1cccnc1 (stereo unspecified)	5866	x
COc1cccc(-c2cnc(C(O)c3ccc(Cl)cc3)[nH]2)c1 (stereo unspecified)	3072	x
C[C@H](CO)N1C[C@H](C)[C@@H](CN(C)C(=O)Nc2cccc(F)c2)Oc2ncc(Br)cc2C1=O	2991	x
O=C(CCN1CC=C(c2ccccc2)CC1)NCc1ccccc1	3468	x
Cc1ccc(S(=O)(=O)N2CCC(=O)N([C@H](COCc3cccc(Cl)c3)Cc3ccccc3)CC2)cc1	4148	x
O=C(COC(=O)/C=C/c1ccc(Cl)cc1)NC1CCS(=O)(=O)C1 (stereo unspecified)	3739	x
CCCC(=O)N1CCC1(C)C(=O)Nc1cc(-c2ccccc2)nn1C (stereo unspecified)	3900	x
OC(c1ccc2c(c1)OCO2)c1ncc(-c2ccccc2)[nH]1 (stereo unspecified)	3787	x

More records follow:
SMILES	Autofluor counter	BJeLR viability
NC(=O)CN1C(=O)C2C3CCC(C3)C2C1=O (stereo unspecified)	2926	x
CCN(CC)CCCNC(=O)CNC(=O)c1nn(-c2ccc(OC)cc2OC)c(=O)c2ccccc12	3821	x
c1cc2c(cc1-c1ccc3c(c1)OCO3)CNCc1cnnn1-2	5603	x
COc1ccccc1-c1cnc(C(O)c2ccc(SC)cc2)[nH]1 (stereo unspecified)	3121	x
Cc1ccccc1S(=O)(=O)N(C)C[C@H]1OCc2cnnn2CCCC(=O)N([C@@H](C)CO)C[C@H]1C	3637	x
Nc1ncnc2c1ncn2[C@@H]1O[C@H](C(=O)N[C@H]2c3ccccc3C[C@H]2OC=O)[C@@H](O)[C@H]1O	5516	x
CCc1nc2ccc(C(=O)N(C)Cc3ccccc3)cn2c1N(CC)Cc1cccc(Br)c1	3901	x
O=C(COc1ccc2ccc(=O)oc2c1)NCCN1CCOCC1	2740	x
COc1cccc(NC(=O)Nc2nnc(COCCO)s2)c1	4492	x
NC(CSCc1ccccc1)C(=O)Nc1ccc([N+](=O)[O-])cc1 (stereo unspecified)	4656	x
CCc1nc2c(OCC(=O)N3CCOCC3)cccn2c1N(C=O)Cc1ccccc1	4046	x
CC(C)C[C@@H]1Cc2[nH][nH]c(=O)c2[C@H](CCc2ccccc2)O1	4470	x
Cc1ccc2nc(-c3cccc(Br)c3)c(Cc3ccccc3)n2c1	6465	x
CCNC(=O)N(C)c1c(CC)nc2ccc(C(=O)N3CCN(C(=O)c4ccco4)CC3)cn12	3795	x
CCCc1c(C(=O)N/N=C(\C)c2ccc3c(c2)OCO3)nnn1-c1nonc1N	2913	x
CCCNC(=O)C[C@@H]1C[C@H]2c3cc(NC(=O)c4ccc5c(c4)OCO5)ccc3O[C@H]2[C@@H](CO)O1	3676	x
COc1ccccc1CNC(=O)C[C@@H]1C[C@H]2c3cc(N(C)C)ccc3O[C@H]2[C@H](CO)O1	3936	x
O=C(Nc1cccc(Cl)c1)c1csc([C@@H]2O[C@H](CO)[C@H](O)[C@H](O)[C@H]2O)n1	3889	x
COc1ccc(-c2nc3ccc(Cl)cn3c2Cc2ccc(C)cc2)cc1OC	5494	x
CS(=O)(=O)Nc1ccc(-c2cncc3nccn23)cc1	3643	x
CCC(=O)N1CCCC(C)(C(=O)Nc2ccc3oc(CC)nc3c2)C1 (stereo unspecified)	3350	x
Cc1ccc(S(=O)(=O)N2CCOCC2)cc1NC(=O)c1ccncc1	3059	x
OC(c1cccnc1)c1nc(-c2cccc(F)c2)cs1 (stereo unspecified)	4021	x
O=C(c1ccccc1)C1CC1c1ccccc1 (stereo unspecified)	3794	x
CN(Cc1ccccc1)C(=O)CN1C(=O)NC2(CCCc3sccc32)C1=O (stereo unspecified)	3129	x

Other compounds follow:
SMILES	Autofluor counter	BJeLR viability
COc1ccc(C(O)c2nc(-c3ccncc3)cs2)cc1 (stereo unspecified)	3792	x
COc1cccc(S(=O)(=O)N(C)C[C@H]2Oc3cc(Br)ccc3S(=O)(=O)N([C@@H](C)CO)C[C@H]2C)c1	3560	x
COc1ccc(Cn2cc(CN3CC(N4CCN(Cc5ccccc5F)CC4)CS3(=O)=O)nn2)cc1 (stereo unspecified)	6030	x
Cc1oc(-c2cccs2)cc1C(=O)N1CCC(C)(C(=O)NS(=O)(=O)C2CC2)C1 (stereo unspecified)	3397	x
CC1(C(=O)NS(=O)(=O)c2cccc(F)c2)CCN1C(=O)CCC1CCCC1 (stereo unspecified)	3009	x
CCOC(=O)/C=C/C(=O)Nc1ccc(S(=O)(=O)Nc2cc(OC)nc(OC)n2)cc1	3474	x
CNC[C@H]1OCc2cnnn2CCCC(=O)N([C@H](C)CO)C[C@@H]1C	4161	x
CC(C)NC(=O)c1cc(C2CCCCN2S(=O)(=O)c2cccs2)on1 (stereo unspecified)	4167	x
CN(CC(=O)NCC1CCCO1)S(=O)(=O)c1ccc2ccccc2c1 (stereo unspecified)	3699	x
CC(C)(C)OC(=O)NCCCCCNC(=O)c1[nH]cnc1C(=O)Nc1cc(Br)ccc1F	3688	x
CN(C)c1ccc(-c2ccnc3c2CC(C)(C(=O)NCC2CC2)O3)cc1 (stereo unspecified)	3785	x
CC1(C)OC(=O)C2=C(C[C@@H](CCC(F)(F)F)O[C@H]2c2ccc(F)cc2)O1	6324	x
COc1ccc(CC(=O)OCC(=O)Nc2ccc3[nH]c(=O)[nH]c3c2)cc1OC	3907	x
COc1cccc(CNC(=O)[C@@H]2CCCN2C(=O)[C@H]2CCCCN2C(=O)c2ccc(Cl)cc2)c1	4160	x
O=C(CCc1nnc(Cc2c[nH]c3ccccc23)o1)NCCC1CCCCO1 (stereo unspecified)	2902	x
CN(C)S(=O)(=O)c1cccc(NC(=O)C2CCCN(C(=O)c3ccc(Cl)cc3)C2)c1 (stereo unspecified)	3914	x
COc1ccc(S(=O)(=O)N2CCCCC2c2cc(C(=O)Nc3ccc(OC)cc3C)no2)cc1 (stereo unspecified)	3005	x
C#CCN1CCc2onc(-c3ccccc3OC)c2C1=O	4057	x
COC(=O)c1cccc(CC2(C)C(=O)Nc3cc(-c4ccccc4Cl)ccc32)c1 (stereo unspecified)	2962	x
CC(C)C[C@@H]1CC2=C(C(=O)OC(C)(C)O2)[C@H](CCc2ccccc2)O1	5878	x
CC(=O)Nc1cc(-c2ccc(CO)cc2)cn2c(-c3ccc(F)c(Cl)c3)cnc12	3818	x
CC(C)NC(=O)N(C)C[C@@H]1OCc2cnnn2CCCC(=O)N([C@@H](C)CO)C[C@H]1C	2979	x
CC(=O)Nc1cc(-c2ccc(F)cc2)cn2c(-c3ccc(S(C)(=O)=O)cc3)cnc12	4113	x
C#CCN(C[C@@H]1[C@@H](OC(=O)NCc2ccc(OC)c(OC)c2)[C@@H](OC(=O)NCc2ccc(OC)c(OC)c2)Cn2c(=O)ccc(=O)n21)S(=O)(=O)c1ccc(C)cc1	2873	x
COc1cc([N+](=O)[O-])cc(/C=N/NC(=O)c2cncc(Br)c2)c1O	3889	-14

The listing continues.
SMILES	Autofluor counter	BJeLR viability
CCN(CC)CCCN1C(=O)c2oc3ccccc3c(=O)c2C1c1cccc(OC)c1OC (stereo unspecified)	11665	20
Nc1nc(Nc2ccc(Cl)cc2)nc(NCCO)c1[N+](=O)[O-]	6225	-4
Cc1cc(/C=N/NC(N)=O)c(C)c(CO)c1	9972	-17
Nc1nnnn1/N=C/c1cc(Br)ccc1O	3710	-9
COc1ccccc1/C=N/NC(=O)CC(=O)NCCc1ccccc1	6199	-12
Cc1nc(N)sc1C(=O)N/N=C/c1ccc([N+](=O)[O-])cc1	4336	3
CCn1c2ccccc2c2cc(NC(=O)c3ccc(=O)oc3)ccc21	5750	11
O=C(C[n+]1ccccc1)N/N=C/c1cc(Br)cc(Br)c1O	3752	-2
COc1ccc(OC)c(-n2c(O)c(C=Nc3c(C)n(C)n(-c4ccccc4)c3=O)c(=O)[nH]c2=S)c1	6217	0
Cn1cccc1/C=N/NC(=O)CNc1ccc2ccccc2c1	3965	9
O=c1cc(-c2cccnc2)oc2c1ccc1ccccc12	3825	-2
Cn1ccs/c1=N\C(=O)Nc1cccc(C(F)(F)F)c1	3914	-2

By substructure, those above with two or more sulfur atoms
SMILES	Autofluor counter	BJeLR viability
Cc1cc(C)c(SSc2nnnn2-c2ccccc2)c(C)c1	2867	x
CCOc1ccc(CCN2C(=S)N([C@@H](CC(C)C)CN3CCC[C@@H]3CN3C(=S)NC[C@@H]3Cc3ccccc3)C[C@@H]2Cc2ccc(O)cc2)cc1	7085	x
COc1cccc(S(=O)(=O)N(C)C[C@H]2Oc3cc(Br)ccc3S(=O)(=O)N([C@@H](C)CO)C[C@H]2C)c1	3560	x
Cc1oc(-c2cccs2)cc1C(=O)N1CCC(C)(C(=O)NS(=O)(=O)C2CC2)C1 (stereo unspecified)	3397	x
CC(C)NC(=O)c1cc(C2CCCCN2S(=O)(=O)c2cccs2)on1 (stereo unspecified)	4167	x

Ordered by formula weight (highest first): 3 of the compounds above.
SMILES	Autofluor counter	BJeLR viability
COc1ccccc1/C=N/NC(=O)CC(=O)NCCc1ccccc1	6199	-12
Nc1nc(Nc2ccc(Cl)cc2)nc(NCCO)c1[N+](=O)[O-]	6225	-4
Cn1cccc1/C=N/NC(=O)CNc1ccc2ccccc2c1	3965	9
